ALR inh – inhibitors of human ALR sulfhydryl oxidase, primary screen, biochemical, H2O2 detection, HRP-luminol luminescence, single point. inhibition, % (no concentration beside the values). purified ALR, DTT oxidation. AID 485317, 2010. FAD-linked sulfhydryl oxidase ALR (Homo sapiens), P55789. actives 3.8% (n = 290,000);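 active means mean and each replicate at 75% or more; inconclusive means only one of the two met; inactive means neither met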;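 further: stock transfer was 7.5 nL into about 7.5 µL; 0% = neutral wells and 100% = wells with inactivated enzyme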
Target sequence (P55789 whole entry, looked up): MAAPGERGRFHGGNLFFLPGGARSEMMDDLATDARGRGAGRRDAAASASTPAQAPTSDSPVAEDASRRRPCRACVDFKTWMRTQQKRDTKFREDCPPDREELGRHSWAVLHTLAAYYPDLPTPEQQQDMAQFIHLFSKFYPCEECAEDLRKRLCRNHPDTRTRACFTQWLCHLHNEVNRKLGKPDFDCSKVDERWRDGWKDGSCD
Vif A3G – inhibitors of Vif binding to APOBEC3G peptide, primary screen, biochemical, TR-FRET, GST-Vif 1-94, biotin-A3G peptide, dose response retest (AID 1117319) | TR-FRET GST-Vif / biotin-A3G peptide binding; higher % means a stronger effect; test concentration not given here; strong numbers were not always called active | inhibition, %, or IC50 in µM where a hit was titrated | actives 0.57% (n = 260,000);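 active means above the screen mean plus three standard deviations and confirmed in dose response; inconclusive means results disagree or hit not tested in dose response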;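 further: Vif residues 1-94 fused to GST binding biotinylated APOBEC3G peptide 110-148; 0% = full assay without inhibitor and 100% = GST in place of GST-Vif; retest series ran down from 100 µM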
FGF22 binding – binders of human FGF22 protein, primary screen, FGF22 synaptogenesis inhibitor project, biophysical, thermal shift, single point; Fibroblast growth factor 22 (Homo sapiens), Q9HCT0; recombinant FGF22 thermal shift, SYPRO orange fluorescence; percent of sucrose octasulfate shift, DMSO zero; calls only at 9.99 µM; actives 1.5% (n = 340,000); AID 651658, 2012;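 active means melting point raised past a set limit in the mean and every replicate; inconclusive means no clear call; three in four hits are not shown here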
Target sequence (Q9HCT0 whole entry, looked up): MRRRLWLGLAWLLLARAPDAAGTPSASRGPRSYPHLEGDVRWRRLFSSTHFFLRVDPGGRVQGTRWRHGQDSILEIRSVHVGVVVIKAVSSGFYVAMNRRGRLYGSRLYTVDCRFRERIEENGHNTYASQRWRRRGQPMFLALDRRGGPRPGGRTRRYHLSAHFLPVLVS
HNF4A DNA FP – change in binding of human HNF4A to DNA, primary screen, biochemical, fluorescence polarization, FITC-DNA; Hepatocyte nuclear factor 4-alpha (Homo sapiens), P41235; 1 h; activity change, % at 10 µM; actives 0.3% (n = 360,000); AID 1224865, 2016; in the data active means activity change above about 30%, passing the limit was not always enough;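 further: controls were the assay level and a saturating level of protein; the project sought stronger binding though the title names inhibitors; some compounds called inactive have numbers as strong as hits; positive values seem to mean higher polarization but the record does not say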
AF4-AF9 inh – inhibitors of AF4 peptide binding to AF9, primary screen, biochemical, AlphaScreen, biotin-AF4 peptide, FLAG-AF9, single point; AID 651704, 2012; actives 0.47% (n = 350,000); Protein AF-9 (Homo sapiens), P42568; inhibition, % at 10 µM;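 active means every replicate reaching a set inhibition limit, whatever the replicate mean, cut at about 25% in these data; inconclusive means mean inhibition reaches that limit but some replicates miss it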;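 further: 0% = plate neutral control median and 100% = total signal loss; the record names both 10 and 1 µM as test concentration; the first replicate is given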
Target sequence (P42568 whole entry, looked up): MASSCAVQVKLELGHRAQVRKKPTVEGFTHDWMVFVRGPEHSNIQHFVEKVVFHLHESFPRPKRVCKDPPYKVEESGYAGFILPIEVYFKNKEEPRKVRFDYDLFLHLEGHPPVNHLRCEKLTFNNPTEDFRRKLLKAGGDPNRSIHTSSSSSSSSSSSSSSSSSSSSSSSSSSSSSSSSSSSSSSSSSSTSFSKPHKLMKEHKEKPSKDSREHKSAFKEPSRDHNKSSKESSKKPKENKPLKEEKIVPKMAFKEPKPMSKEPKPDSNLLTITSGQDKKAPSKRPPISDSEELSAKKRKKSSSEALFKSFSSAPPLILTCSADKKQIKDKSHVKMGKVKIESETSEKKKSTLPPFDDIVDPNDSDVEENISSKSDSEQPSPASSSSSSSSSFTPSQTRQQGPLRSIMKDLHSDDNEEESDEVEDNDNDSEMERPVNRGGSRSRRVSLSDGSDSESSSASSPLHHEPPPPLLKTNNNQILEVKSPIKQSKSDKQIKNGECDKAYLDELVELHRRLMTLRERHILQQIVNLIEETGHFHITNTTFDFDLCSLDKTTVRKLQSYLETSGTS
Ecoli rRNA inh – reduced GFP signal of wild-type E. coli, primary screen, bacterial rRNA inhibitor project, GFP/RFP fluorescence, OD600, single point; E. coli WT GFP vs humanized-ribosome RFP mutants, 24 h; active compounds read low; DMSO median 0, no signal -100; GFP signal change (wild-type ribosome), % (concentration not given with the values); actives 1.6% (n = 350,000); AID 720706, 2013;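 active means significant combined selectivity score with lowered wild-type GFP, culture density cut under 30%, mutant RFP and density less affected; inactive means any of these conditions unmet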; further: one replicate is shown; some compounds called inactive have numbers as strong as hits
E coli growth – E. coli growth inhibition, primary screen, OD600 | Escherichia coli growth, 23 h; active compounds read low | OD600 absorbance (no concentration beside the values) | actives 0.21% (n = 330,000);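 active means OD600 absorbance below the run mean of sample wells minus 3.6 SD, in any replicate, cut at about 0.56 in these data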;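 further: stock transfer was 300 nL into about 60 µL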
Ecoli rRNA inh OD600 – recorded beside Ecoli rRNA inh, whose call it bears; OD600 change, %; measured here: OD600 growth;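 optical density of the mix in the first replicate; 0 = DMSO median and -100 = no signal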
Ecoli rRNA inh RFP – further read-out of Ecoli rRNA inh, marked with its call; RFP signal change, %; measured here: RFP humanized mutant strains;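 first replicate; 0 = DMSO median and -100 = no signal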
Active calls of the source: *; i = inactive; ? = inconclusive; / = no result given; & = joins results of further samples.

SMILES	ALR inh	Vif A3G	FGF22 binding	HNF4A DNA FP	AF4-AF9 inh	Ecoli rRNA inh	Ecoli rRNA inh OD600	Ecoli rRNA inh RFP	E coli growth
Cc1cc(C)n(-c2cc(N3CCOCC3)nc(-c3ccccc3)n2)n1	0	-2%	i	5.6	1.3	7	8	-5.6	0.63
Cc1ccc(NC(=O)CSC2=Nc3ccccc3C3CC=NN23)c(C)c1 (centres undefined)	7	?	/	0.5	/	/	/	/	0.61
CCN(Cc1ccccc1)S(=O)(=O)c1ccc(C(=O)N(CCCN(C)C)c2nc3c(C)c(C)ccc3s2)cc1	-11	/	i	-0.1	-107	-34	-59	11	0.6
COc1cc(/C=N/NC(=O)c2ccncc2)ccc1OCC(=O)Nc1ccc(C)c(C)c1	-5	/	i	6.6	0.1	-4	-9	0.3	/
Cc1nn(-c2ccccc2)c(C)c1NC(=O)COC(=O)CC(C)c1ccccc1 (centres undefined)	-7	2%	i	-3.6	-1.7	-1	-7	4.0	0.67
O=C(c1ccc(S(=O)(=O)N2CCC(c3nc4ccccc4[nH]3)CC2)cc1)N1CCOCC1	/	6%	/	6.2	/	/	/	/	0.68
COc1ccc(-c2cc3nc4c(c(=O)n3[nH]2)CCC4)cc1	/	8%	/	2.0	/	/	/	/	0.68
CC(C)NC(=O)C(=O)NCCC1CCCCN1S(=O)(=O)c1cccs1 (centres undefined)	-1	-6%	i	4.7	-1.7	2	10	-2.8	0.68
CC(C)NC(=O)Nc1cccc2c1O[C@@H](CN(C)C(=O)Nc1ccccc1)[C@H](C)CN([C@H](C)CO)C2=O	/	/	i	/	-3.0	0	6	-0.4	/
COc1ccccc1NC(=O)C1=C(C)Nc2nc(CCCO)nn2C1c1cccnc1 (centres undefined)	-1	1%&-4%	/	-0.8	/	/	/	/	0.81
CO[C@H](CN(C)C(=O)c1ccc2c(c1)OCO2)[C@H](C)CN([C@@H](C)CO)S(=O)(=O)c1ccccc1	/	/	i	/	-0.8	2	0	-0.3	/
CCn1cc(S(=O)(=O)c2ccc(OC)cc2)c(=O)c2cc(F)c(N3CCN(C)CC3)cc21	-12	4%	i	4.0	1.8	-2	-3	-2.8	0.64
COc1cccc(/C=C2\Oc3cc(OCC(=O)N4CCCC4)ccc3C2=O)c1OC	/	/	i	-3.1	-5.5	-24*	-11*	1.5*	0.72
O=C(O)Cn1c(P(=O)(O)c2ccccc2)nc2ccccc21	-4	3%	/	-0.4	/	/	/	/	0.72
N/C(=N\OC(=O)c1cccnc1)c1ccccc1Cl	-3	-1%	i	1.5	-2.5	10	5	0.6	0.7
C=CCNC(=S)NC(=O)c1oc2ccccc2c1C	26	/	/	2.1	-1.5	14	6	0.0	0.67
COc1ccc(CCC(=O)NC2=NCCS2)cc1OC	-3	9%	/	2.7	/	/	/	/	0.72
COc1cc(Cl)ccc1OCc1cc(C(=O)N2CCN(c3ccccn3)CC2)no1	-8	/	i	1.7	-1.3	1	2	-0.3	0.67
CCN1[C@@H]2c3ccc(C4=CCCC4)c(=O)n3C[C@H]1[C@H](CO)[C@H]2C(=O)N[C@@H](C)c1ccccc1	/	/	i	/	1.9	-1	5	1.6	/
CCOC(=O)c1ccc(NC(=O)CSc2nc(=O)n3cccc(C)c3n2)cc1	36	-9%	i	2.8	-0.7	-10	-19	4.5	0.68
Cc1ccc(C(=O)C2=C(O)C(=O)N(Cc3ccco3)C2c2cccc(Br)c2)o1 (centres undefined)	17	/	i	2.6	-1.4	0	0	13	/
O=C(COC(=O)c1cc(=O)[nH]c2ccccc12)c1cccs1	-4	/	i	1.6	-1.3	-3	-10	3.8	0.67
CS(=O)(=O)C1=NSC2=NC(=O)/C(=C\c3ccc(OS(=O)(=O)c4ccccc4)cc3)C(=N)N21	65	/	i	-6.5	1.3	-16	-6	4.5	0.68
COc1ccc(CCC(=O)NNC(=O)Nc2cc(Cl)ccc2C)cc1	-26	/	i	2.1	0.2	6	-7	-2.1	0.64
Cc1ccc(-n2nc3c(c2NC(=O)C2CC2)CS(=O)(=O)C3)cc1	-18	?	i	-1.6	-11	10	7	-0.4	0.67

Overlap with the part before: six entries, then new ones.
SMILES	ALR inh	Vif A3G	FGF22 binding	HNF4A DNA FP	AF4-AF9 inh	Ecoli rRNA inh	Ecoli rRNA inh OD600	Ecoli rRNA inh RFP	E coli growth
CCOC(=O)c1ccc(NC(=O)CSc2nc(=O)n3cccc(C)c3n2)cc1	36	-9%	i	2.8	-0.7	-10	-19	4.5	0.68
Cc1ccc(C(=O)C2=C(O)C(=O)N(Cc3ccco3)C2c2cccc(Br)c2)o1 (centres undefined)	17	/	i	2.6	-1.4	0	0	13	/
O=C(COC(=O)c1cc(=O)[nH]c2ccccc12)c1cccs1	-4	/	i	1.6	-1.3	-3	-10	3.8	0.67
CS(=O)(=O)C1=NSC2=NC(=O)/C(=C\c3ccc(OS(=O)(=O)c4ccccc4)cc3)C(=N)N21	65	/	i	-6.5	1.3	-16	-6	4.5	0.68
COc1ccc(CCC(=O)NNC(=O)Nc2cc(Cl)ccc2C)cc1	-26	/	i	2.1	0.2	6	-7	-2.1	0.64
Cc1ccc(-n2nc3c(c2NC(=O)C2CC2)CS(=O)(=O)C3)cc1	-18	?	i	-1.6	-11	10	7	-0.4	0.67
COc1ccc(F)cc1CN1CCN(C(=O)CCC(=O)Nc2nnc(CC(C)C)s2)CC1	-5	/	i	2.3	1.5	-5	-7	-3.7	0.7
COc1cc(CCC(=O)Nc2ccc(Br)c(C(F)(F)F)c2)cc(OC)c1OC	0	/	/	1.3	/	/	/	/	0.66
CN(C)c1ccc(NC(=O)CSc2nnc(-c3cnccn3)n2C)cc1	99*	6%	i	1.5	-9.3	8	12	-0.8	0.65
N/C(=N\OC(=O)C1CCCCC1)c1ccc(Cl)cc1	-8	-4%	i	-0.5	-1.5	/	/	/	0.73
CCN1C(=S)N[C@@H](CCc2ccccc2)C(C(=O)OC)=C1C	-3	/	i	1.7	-3.0	-17	-21	-17	/
O=c1c2ccccc2nc2n1CCCCN2	-7	?	/	-2.0	/	/	/	/	0.76
Cn1cc(-c2coc3c(C(=O)Nc4ccccc4)cccc23)cn1	/	/	i	-4.0	1.5	-13	-39	-10	/
C[C@H](CO)N1C[C@H](C)[C@@H](CN(C)Cc2cccc(F)c2)Oc2ncc(Br)cc2C1=O	/	/	i	/	-0.6	5	9	-2.9	/
COCC(=O)N1CCN(c2nc3ccccc3o2)CC1	-2	-4%	i	-4.0	1.6	17	-8	-2.4	0.7
COCCCn1cc(CN2CC(N3CCSCC3)CS2(=O)=O)nn1 (centres undefined)	/	/	i	-2.5	1.7	17	14	1.5	/
O=C(NNS(=O)(=O)c1ccc(F)cc1)c1cnccn1	/	-7%	i	0.5	-0.8	9	4	0.6	0.71
CN(C)CCC(=O)c1cccc(Br)c1	40	-12%	i	1.6	0.6	17	7	-0.5	/
O=C(CSc1nnc(CNC(=O)c2ccccc2F)o1)NCc1ccccc1	-15	20%	i	0.0	0.2	13	4	-0.3	0.66
Cc1cc(NC(=O)CSc2ncn(-c3ccccc3)n2)no1	/	0%	/	2.4	/	/	/	/	0.71
COc1ccc(NC(=O)C(=O)NCCN2CCN(C(=O)c3ccc(C)cc3)CC2)cc1	/	-3%	i	1.9	0.7	6	8	3.2	0.67
CN(C)/C=C(/C(=O)c1ccccc1)S(=O)(=O)c1ccc(Cl)cc1	-13	26%	i	2.3	-1.4	15	15	1.4	0.66
C[C@H](CO)N1C[C@H](C)[C@H](CN(C)Cc2ccncc2)Oc2ccc(NS(=O)(=O)c3ccc(Cl)cc3)cc2CC1=O	/	/	i	/	-0.3	-1	0	3.2	/
O=C(CSc1ncn[nH]1)NCc1ccccc1	-4	-2%	/	-2.1	/	/	/	/	0.74
COc1cccc(OC)c1OCCOc1ccccc1OC(C)C	-7	5%	/	2.5	/	/	/	/	0.78
Cc1nc2c(C(=O)N3CCOCC3)cnn2c(C)c1Cc1cccc(Cl)c1	-1	?	i	/	-0.6	-6	-21	-8.5	0.63
CC(=O)NCC(=O)N1CCCC(C(=O)c2ccc3c4c(cccc24)CC3)C1 (centres undefined)	-1	0%	i	0.4	-7.8	-5	-13	-2.0	0.68
C[C@H](CO)N1C[C@H](C)[C@H](CN(C)S(C)(=O)=O)Oc2c(NC(=O)Nc3ccccc3)cccc2C1=O	/	/	i	/	-1.3	2	0	-2.6	/
N#Cc1cnc2ncnn2c1-c1ccccc1	6	-1%	i	3.2	0.7	-4	0	1.4	0.71
CCCS(=O)(=O)NC(=O)C1(C)CCN(C(=O)c2ccc3c(c2)OCO3)C1 (centres undefined)	/	/	i	3.1	0.7	12	14	1.5	/
COc1ccc(NC(=O)N(C)C[C@@H]2OCCCC[C@@H](C)Oc3ccc(NS(=O)(=O)c4ccc(F)cc4)cc3C(=O)N([C@@H](C)CO)C[C@H]2C)cc1	/	/	i	/	-2.6	0	1	2.2	/
O=C(Nc1sc2c(c1C(=O)O)CCC2)c1cccc(Cl)c1	24	3%	i	1.5	-1.3	-19	-15	-5.0	0.66
C=CCOC(=O)C1=C[C@H](c2ccc(Br)cc2)C[C@H](OCCCCO)O1	9	/	i	-0.5	-0.8	-6	-4	2.7	/
Cn1c(=O)c2cc(NC(=S)NC3CC3)ccc2n1Cc1ccc(F)cc1	/	/	i	0.0	2.1	6	10	1.8	/
CCc1cccc(OCCCCNCCOC)c1	-3	6%	/	-4.4	/	/	/	/	0.7

Arranged by the number under Ecoli rRNA inh RFP (rising): some entries from above.
SMILES	ALR inh	Vif A3G	AF4-AF9 inh	Ecoli rRNA inh	Ecoli rRNA inh OD600	Ecoli rRNA inh RFP
CCN1C(=S)N[C@@H](CCc2ccccc2)C(C(=O)OC)=C1C	-3	/	-3.0	-17	-21	-17
Cc1nc2c(C(=O)N3CCOCC3)cnn2c(C)c1Cc1cccc(Cl)c1	-1	?	-0.6	-6	-21	-8.5
CN(C)CCC(=O)c1cccc(Br)c1	40	-12%	0.6	17	7	-0.5
Cn1c(=O)c2cc(NC(=S)NC3CC3)ccc2n1Cc1ccc(F)cc1	/	/	2.1	6	10	1.8
COc1ccc(NC(=O)C(=O)NCCN2CCN(C(=O)c3ccc(C)cc3)CC2)cc1	/	-3%	0.7	6	8	3.2

ALR inh: what is marked active above
| smiles | ALR inh | Vif A3G | AF4-AF9 inh | Ecoli rRNA inh | Ecoli rRNA inh OD600 | Ecoli rRNA inh RFP |
| --- | --- | --- | --- | --- | --- | --- |
| CN(C)c1ccc(NC(=O)CSc2nnc(-c3cnccn3)n2C)cc1 | 99* | 6% | -9.3 | 8 | 12 | -0.8 |

Bioassay records from PubChem.

These rows are one share of the data; rates above refer to the full screens.
